BJeLR viability = kills HRASV12-expressing BJeLR cells; BJeLR (HRASV12) viability, CellTiter-Glo ATP luminescence, 48 h; reference of the scale not given here; inhibition, % (no concentration beside the values); 300,000 compounds, 0.17% hits; AID 1554;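 active means replicate mean above 50%; inconclusive means above 50% but judged a plate artefact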;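 further: 50 nL library stock added to about 25 µL; numbers are from one replicate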
ugtP null kill = compounds lethal to S. aureus RN4220 ugtP deletion mutant | OD600 growth, 16 h; some inactives read as strong as hits | growth inhibition, % (concentration not given with the values) | 330,000 compounds, 0.54% hits | AID 1259309;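 active means z-score under -3 and OD600 up to 0.15 on both plates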;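 further: plate controls were untreated wells for no effect and antibiotic for full effect; wells of about 80 µL received 100 nL stock; the first replicate is given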
Sa RN4220 lethal = kills Staphylococcus aureus RN4220; 330,000 compounds, 0.33% hits; inhibition, % (no concentration beside the values); AID 1259311; S. aureus RN4220 growth, OD600, 16 h;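 active means z-score of -3 or lower and OD600 up to 0.18 on both plates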;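 further: plate controls were untreated cells for no effect and reference antibiotic for full effect; stock transfer was 100 nL into about 80 µL; one replicate is shown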
Mtb hypoxia inh = reduces hypoxia-regulated biosensor signal in M. tuberculosis | M. tuberculosis hypoxia-regulated fluorescent reporter, fluorescence | fluorescence inhibition, % (test concentration not listed) | 300,000 compounds, 0.1% hits;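 active means 35 to 45% if threefold the growth effect, above 45% if 1.5-fold the growth effect; inactive means the rest, general growth blockers included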;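 further: wells of about 50 µL received 100 nL stock; 0% = vehicle wells and 100% = reference inhibitor wells; whole bacteria with a GFP reporter of the hypoxia response; strong numbers were not always called active; many hits fall short of the cut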
Bead autofluor = counter-screen for toxin protease inhibitors: compound fluorescence. compound autofluorescence counterscreen, microsphere flow cytometry; hits give high values. fluorescence intensity (test concentration not listed). 360,000 compounds, 3.1% hits. AID 624483;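 active means at least 3 SD above the mean of all compounds, about 16000 in these data; inconclusive means too few beads counted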;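 further: 100 nL of 1 mM stock went into each well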
PrP UTR inh = inhibition of PrP 5' UTR reporter expression; AID 488862; cell-based PrP 5' UTR mRNA reporter, plate reader; inhibition, % (test concentration not listed); 340,000 compounds, 0.35% hits;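 active means every replicate at 50% or more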;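 further: 0 = median of the neutral control wells; tested in H4 reporter cells; numbers are from one replicate; inactives centre near -14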
Mtb hypoxia inh growth = second read-out of Mtb hypoxia inh, no call of its own (marks repeat the call); growth inhibition, %; measured here: M. tuberculosis growth (absorbance);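 0% = vehicle and 100% = reference antibiotic; read after six days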
Numbers without * were called inactive; ? = inconclusive; . = not tested or not shown.

SMILES	BJeLR viability	ugtP null kill	Sa RN4220 lethal	Mtb hypoxia inh	Mtb hypoxia inh growth	Bead autofluor	PrP UTR inh
O=C(NCc1ccccn1)c1nnc(Cc2ccc(Cl)cc2)o1	-4	3	1.6	2	5	5028	-10
CC(C)[C@H]1COCCS(=O)(=O)N1Cc1cccc(Cl)c1	-5	.	.	.	.	3695	-8
Cc1c(C(=O)c2cccc(F)c2)c2ccccn2c1CCC#N	5	-7	2.6	-4	7	4269	28
COc1cccc(CN(C)C(=O)CSCC(=O)Nc2cccc(C)c2)c1OC	.	4	3.2	5	3	3634	-10
O=C(Cn1cc(/C=N/NC(=O)c2cccc(C(F)(F)F)c2)c2ccccc21)Nc1ccc(F)cc1	9	.	.	.	.	23333*	-14
CC(=O)c1ccc(OCc2cc(C(=O)N(C)Cc3ccccn3)no2)cc1	0	15	3.5	18	2	?	-58
CCOC(=O)Sc1nc2ncncc2[nH]1	.	3	3.1	8	4	2934	-25
Cc1cc(C=C2C(=O)N(C)C(=O)N(C)C2=O)c(C)n1-c1ccccc1	-22	-3	7.7	-4	0	3252	-4
CC[N+](CC)(CC#Cc1ccccc1)CC(=O)c1ccc(Cl)cc1	-14	.	.	.	.	3299	-4
Cc1ccc(OCC(=O)O/N=C(\N)c2ccccn2)cc1C	0	12	3.9	9	8	3258	.
CCCNCC1C(Oc2ccc(Cl)cc2)C(=O)N1c1ccccc1C (stereo unspecified)	-10	15	0.2	11	7	10610	-16
CCN(CC)S(=O)(=O)c1ccc(C(=O)NNC(=O)C2COc3ccccc3O2)cc1 (stereo unspecified)	.	4	6.0	3	0	5946	-10
O=C(NCCOc1ccccc1F)Nc1ccc(Br)cc1	-8	-5	-3.8	-11	-4	4819	-36
Cc1ccc(CCNC(=O)C2CC(=O)N(C3CCCCC3)C2)cc1 (stereo unspecified)	11	4	2.8	1	-6	5417	-12
COc1ccc(CN2CCN(CC3CC3)CC2CCO)c(C)c1C (stereo unspecified)	16	0	1.6	-6	11	4181	6
COc1ccc(C(=O)Nc2ccc3nc4n(c(=O)c3c2)CCCC4)cc1[N+](=O)[O-]	-2	4	-1.9	-5	1	.	.
Cc1cc(C(=O)Nc2sc(C)c(C)c2C#N)c(C)o1	8	-5	6.7	12	12	16457*	-18
CN1CCN(S(=O)(=O)c2cccc(C(=O)N3CCc4ccccc43)c2)CC1	5	3	4.0	6	6	3410	-14
COc1ccc(S(=O)(=O)N2CCOCC2)cc1NC(=O)CSc1cccc[n+]1[O-]	-5	10	0.8	-4	-11	4079	-15
O=C(COc1ccc(S(=O)(=O)N2CCOCC2)cc1)N1CCOCC1	.	6	3.9	-5	-4	3683	-26
CCc1ccccc1NC(=O)CCCSc1nc2ccccc2s1	-1	-6	5.9	10	-1	2668	-23
O=C(OCCN1C(=O)CCC1=O)c1ccc(S(=O)(=O)N2CCCCC2)cc1	-2	8	-2.4	.	.	4668	-12
Cc1cc(C)c2c(c1)NC(c1cc3c(cc1Br)OCO3)C1CC=CC21 (stereo unspecified)	-3	55	-9.6	19	10	1899	-12
O=C1C=C(Nc2ccc(Cl)cc2)C(=O)N1c1ccc(Cl)cc1	-4	7	5.3	11	0	2567	-15
CSCCC(NC(=O)c1ccccc1Br)C(=O)N1CCN(C/C=C/c2ccccc2)CC1 (stereo unspecified)	.	-1	-0.7	-4	4	3347	-14
(list continues)
SMILES	BJeLR viability	ugtP null kill	Sa RN4220 lethal	Mtb hypoxia inh	Mtb hypoxia inh growth	Bead autofluor	PrP UTR inh
CCCn1c(SCC(=O)Nc2cc(C(=O)O)ccc2C)nc2sc3c(c2c1=O)CCC3	.	1	-1.8	8	2	4175	-39
O=C(O)[C@H]1CCCC[C@H]1C(=O)NCCNC(=O)[C@@H]1CCCC[C@@H]1C(=O)O	-1	-2	-1.0	4	4	23932*	-20
CNS(=O)(=O)c1cccc2cccnc12	-4	-2	-8.3	5	8	3367	-6
COc1ccccc1-c1noc(CCCC(=O)NC2CCCCC2)n1	1	0	3.0	-3	6	5271	-7
CCOC(=O)C(C(=O)OCC)N(C#N)c1nc(SC)nc(N(C)C)n1	6	0	3.1	.	.	2930	-9
CCC(=O)c1ccc(OC(C)C(=O)NC2(C#N)CCCCC2)cc1 (stereo unspecified)	-5	6	0.1	-8	-9	7325	0
CSc1nc2nc(C(F)(F)F)cc(-c3ccccc3)n2n1	2	9	6.6	.	.	4350	-10
Cc1nnc(SCC(=O)NCCC2=CCCCC2)[nH]c1=O	.	5	5.7	12	2	?	-13
CCC(CC)C(=O)Nc1cccc(C(=O)Nc2ccc(S(N)(=O)=O)cc2)c1	-1	-8	-3.5	1	7	3823	-5
O=C(Nc1cccc(S(=O)(=O)Nc2ccc(Cl)cc2)c1)c1cc2c(s1)CCCC2	-2	-8	34	1	1	2738	-3
COc1ccc(/C=N/N2CCN(Cc3ccc(C)cc3)CC2)cc1Br	-7	.	.	.	.	4367	-13
COc1cccc(C2CC(c3ccccc3)=NN2S(=O)(=O)c2ccc(C)cc2)c1OC (stereo unspecified)	.	45	-2.9	3	10	32220*	-7
CC1(C)CC(=O)C(N=Nc2cccc([N+](=O)[O-])c2)=C(O)C1	4	3	-2.5	0	4	5994	-19
COC(=O)c1nn(-c2ccc(OC)cc2)c(=O)cc1O	8	-1	1.8	-7	-11	2649	-42
O=c1cc(O)nc(SCc2ccccc2)n1-c1ccc(F)cc1	-3	0	1.8	0	4	4086	-6
COc1cc(C=NN(C)c2ccccc2)ccc1O	.	-9	3.4	11	2	.	.
CCC1CCCCN1C(=O)N[C@@H](CCSC)C(=O)OC (stereo partly specified)	-3	.	.	.	.	3388	-1
O=C(NNC(=O)c1ccccc1Cl)c1csc(N2CCOCC2)n1	-2	-3	-3.1	-4	6	.	-10
O=C(NCc1ccc(N2CCCC2=O)cc1)C1CCC(=O)N(Cc2ccccc2F)C1 (stereo unspecified)	-8	7	1.6	0	0	5755	-14
Cc1ccc(S(=O)(=O)N2CCOCC2)cc1C(=O)OCCOc1cccc(Cl)c1	-1	-8	0.6	-2	11	5748	-7
COC(=O)c1c(NC(=O)CSc2ncnc3c2cnn3-c2ccccc2Cl)sc2c1CCCC2	0	26	-1.9	5	-4	3927	-22
COC(=O)c1c(NC(=O)/C=C/C(=O)O)sc(C)c1-c1ccc(C)c(C)c1	6	6	22	0	0	2034	-28
COC(=O)c1cn(NC(=O)c2cc(OC)c(OC)c(OC)c2)c(=O)c2ccccc12	0	-3	-0.6	17	-8	3408	7
Cc1cccc(N(CC(=O)NCc2ccccc2)C(=O)Cn2nnc(-c3ccc(C)o3)n2)c1	-14	-2	-1.1	-1	17	13960	-18
CCOC(=O)C1CN(S(=O)(=O)c2ccccc2)c2cc(S(=O)(=O)CC)ccc2O1 (stereo unspecified)	5	0	1.4	0	8	4250	12
New compounds follow:
SMILES	BJeLR viability	ugtP null kill	Sa RN4220 lethal	Mtb hypoxia inh	Mtb hypoxia inh growth	Bead autofluor	PrP UTR inh
Cc1csc(CNC(=O)CC2C(=O)NCCN2Cc2ccc(F)cc2Cl)n1 (stereo unspecified)	8	6	1.8	10	10	5179	-11
CN(Cc1ccccc1)CC(O)CN(C)Cc1ccccc1	.	9	5.0	5	4	3092	-9
Cc1nnc(NN=Cc2ccccn2)[nH]c1=O	.	1	-1.1	7	-3	.	.
COc1ccc(C2(O)CCN(C(=O)NC3CCCCC3)CC2)cc1	-2	0	2.3	16	12	13194	-18
CCN1C(=O)CSc2ccc(C(=O)NCCCN3CCOCC3)cc21	-7	8	4.2	10	10	11454	.
O=C(Cc1ccc(Br)cc1)Nc1cccc(-c2cn3c(n2)SCC3)c1	-6	10	-19	11	21	4341	1
CC(C)Oc1ccc(C(=O)NC(=S)Nc2ccc(CN3CCOCC3)cc2)cc1	-7	14	0.0	.	.	2442	-10
CC(C)(C)NC(=O)CSc1nc2cccnc2n1C1CCCCC1	-1	7	-0.1	6	-3	3909	-20
O=C(NCCCN1CCOCC1)C1CC(=O)N(c2ccccc2)C1 (stereo unspecified)	5	-2	1.6	4	-6	3836	-6
COc1ccc(OC)c(CNC(=O)CCn2nc(C)c3c(C)n(-c4ccccc4)nc3c2=O)c1	-4	2	-1.5	13	1	5993	3
COc1ccc(C(=O)Nc2ccccc2C(=O)N2CCCCCC2)cc1OC	-7	-1	3.0	9	3	?	0
CS(=O)(=O)NN1C(=O)c2ccccc2NC1c1cccs1 (stereo unspecified)	-4	9	4.5	-3	3	4705	-4
Cc1cc(N2CCN(C)CC2)nc2ccc(NC(=O)CCC(=O)NCc3ccco3)cc12	-5	-15	-2.4	-21	13	9229	-18
Cc1ccc(-c2noc(CCCC(=O)Nc3cccnc3)n2)cc1	2	0	-0.6	6	3	9652	-1
Brc1c(CSc2nncc3ccccc23)nc2ccccn12	-3	0	6.5	14	3	3927	25
CCOC(=O)N1CCN(c2c(NCc3ccc(F)cc3)c(=O)c2=O)CC1	38	-7	4.3	11	7	5505	-11
COc1ccccc1CP(=O)(c1ccccc1)c1ccccc1	16	-2	6.1	6	-1	7402	7
O=C(NC(=S)Nc1ccc(Oc2ccccc2)cc1)c1ccc(Cl)cc1	-9	98*	-6.7	.	.	6961	-75
Cc1cccc(-c2nc(CS(=O)CC(=O)NCCCSC3CCCCC3)c(C)o2)c1 (stereo unspecified)	-1	-14	-4.2	1	13	20646*	-61
CCN(CC)C(=S)SCC(=O)c1c(C)[nH]c2ccccc12	-4	-21	7.8	8	4	2480	-12
COc1ccc(N2CCN(C(=O)CNC(=O)Cn3c(C)cc4ccccc4c3=O)CC2)cc1	-8	0	2.3	3	11	11469	5
O=C(Nc1nnc(C2CC2)s1)c1cccc(S(=O)(=O)N2CC(c3ccccc3)CC2=O)c1 (stereo unspecified)	11	5	4.5	3	1	4991	-1
COc1ccc(CCNC(=O)C2CC(=O)N(c3ccccc3)C2)cc1OC (stereo unspecified)	2	-4	4.1	2	4	3939	-9
Cc1cc(C)c(S(C)(=O)=O)c(Oc2cccc(Cl)c2)n1	-4	-1	0.8	.	.	2869	-23
CCn1c(=N)n(Cc2ccccc2F)c2ccccc21	-16	16	1.4	6	3	1993	-5

5 of the compounds above, bar-delimited.
Structure | BJeLR viability | ugtP null kill | Sa RN4220 lethal | Mtb hypoxia inh | Mtb hypoxia inh growth | Bead autofluor | PrP UTR inh
CS(=O)(=O)NN1C(=O)c2ccccc2NC1c1cccs1 (stereo unspecified) | -4 | 9 | 4.5 | -3 | 3 | 4705 | -4
Cc1cc(N2CCN(C)CC2)nc2ccc(NC(=O)CCC(=O)NCc3ccco3)cc12 | -5 | -15 | -2.4 | -21 | 13 | 9229 | -18
Cc1ccc(-c2noc(CCCC(=O)Nc3cccnc3)n2)cc1 | 2 | 0 | -0.6 | 6 | 3 | 9652 | -1
Brc1c(CSc2nncc3ccccc23)nc2ccccn12 | -3 | 0 | 6.5 | 14 | 3 | 3927 | 25
CCOC(=O)N1CCN(c2c(NCc3ccc(F)cc3)c(=O)c2=O)CC1 | 38 | -7 | 4.3 | 11 | 7 | 5505 | -11

The list goes on:
SMILES	BJeLR viability	ugtP null kill	Sa RN4220 lethal	Mtb hypoxia inh	Mtb hypoxia inh growth	Bead autofluor	PrP UTR inh
CCNC(=S)NNC(=O)c1cc(-c2cccc(OCC)c2)nc2ccccc12	0	-8	4.8	3	8	11129	-22
COC(=O)c1cn[nH]c1NC(=S)Nc1ccc(C)cc1Cl	6	-16	2.8	0	-2	23473*	-121
Cc1ccc(NC(=O)Cn2c(=S)[nH]c3ccccc32)cc1	-2	-3	1.8	3	12	2238	-105
Nn1c(SCC(=O)NC2CCCc3ccccc32)nnc1-c1cccs1 (stereo unspecified)	-20	2	2.1	1	8	8683	-7
CC1Cc2ccccc2N1C(=O)COC(=O)c1ccc(S(=O)(=O)N(C)C)cc1 (stereo unspecified)	-6	3	1.6	.	.	3041	-18
O=C(NCCOC(=O)c1ccc(F)cc1)c1ccc(F)cc1	3	-2	-3.1	-10	-10	4212	-31
CCOc1ccc(-n2c(=O)[nH]cc(C(=O)Nc3ccc(OC)c(OC)c3)c2=O)cc1	-6	3	4.4	0	11	3305	-14
CCOC(=O)N1CCN(S(=O)(=O)c2ccc(C(=O)Nc3ccc4c(c3)C(=O)NC4=O)cc2)CC1	1	3	-0.6	3	0	10328	-40
COC(=O)c1ccc(CN(c2ccc(C(=O)O)c(O)c2)S(=O)(=O)c2ccc(Cl)c([N+](=O)[O-])c2)cc1	-16	40	1.5	10	0	3532	.
O=C1CC(N2CCN(C/C=C/c3ccccc3)CC2)C(=O)N1Cc1ccc(N2CCCC2=O)cc1 (stereo unspecified)	0	-8	3.0	-3	9	19939*	-5

Screens from PubChem BioAssay.

This is a random part of the collection, and some 4% of all compounds hit somewhere here.
